Bioassay records deposited in PubChem by National Center for Advancing Translational Sciences (NCATS).
Cruzain inh noDet = inhibitors of Trypanosoma cruzi cruzain without detergent; purified cruzain, Z-FR-AMC fluorescence, no detergent; P25779; AID 1476; Potency, µM, without a hit: max response, negative = inhibition, hits mostly inhibitors; 2.3% of 200,000 active;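 also: plate controls were enzyme without inhibitor for no effect and buffer without enzyme for full effect; nearly all actives have a fitted effect of over 40% in size; top concentration of the series not given in the record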
Target sequence (P25779 123-467 limits assumed): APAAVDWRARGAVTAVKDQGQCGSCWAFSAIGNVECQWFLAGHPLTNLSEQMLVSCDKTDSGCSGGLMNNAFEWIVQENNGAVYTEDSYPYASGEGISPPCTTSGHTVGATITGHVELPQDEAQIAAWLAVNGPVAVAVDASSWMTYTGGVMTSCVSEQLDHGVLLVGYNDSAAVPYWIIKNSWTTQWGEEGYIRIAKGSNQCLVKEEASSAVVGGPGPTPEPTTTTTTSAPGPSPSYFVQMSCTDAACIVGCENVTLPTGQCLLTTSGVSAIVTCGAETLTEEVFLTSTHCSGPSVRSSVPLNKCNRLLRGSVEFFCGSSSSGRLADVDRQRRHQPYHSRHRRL
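Purified cruzain at 1.5 nM, pre-incubated 15 min with compound at room temperature in 100 mM sodium acetate pH 5.5, 5 mM DTT, 0.00005% Triton X-100. Reaction started with 2 uM Z-FR-AMC; AMC fluorescence increase over 60 s gives rate.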
StopGo reporter = FMDV 2A StopGo reporter, luciferase signal. human cells with a luciferase reporter of 2A StopGo recoding; control for the full effect not named in the record. Potency, µM (titrated, usually from 57.9 µM), without a hit: at the highest dose signal change, negative = less light. 1.2% of 410,000 active. AID 1159524; active = well fitted falling curve with a large enough effect; inconclusive = small, poorly fitted or top-dose-only effect; inactive = no such curve, though single readings can be large or run the other way; tested in HEK293T cells; also: % is scaled to controls: 0 for no effect and ±100 for the full control effect; nearly all actives have a fitted effect of over 45% in size; luciferase light after 4 h
Cruzain Triton = inhibitors of Trypanosoma cruzi cruzain with detergent; purified cruzain, Z-FR-AMC fluorescence, 0.01% Triton; Potency, µM, for inactives: max response, negative = inhibition, most hits filed as inhibitors; 0.43% of 200,000 active; AID 1478;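 also: plate controls were neutral wells for no effect and buffer without enzyme for full effect; nearly all actives have a fitted effect of over 40% in size; top concentration of the series not given in the record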
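Detergent-containing arm of a paired screen for aggregation-based inhibition: 0.01% Triton X-100 present. Cruzain at 1.5 nM cleaved 2 uM Z-FR-AMC at pH 5.5 with 5 mM DTT; AMC fluorescence gain over 60 s measured activity.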
Lassa entry inh = inhibitors of Lassa virus binding or cell entry; Lassa virus pseudotype entry inhibition, cell reporter; control for the full effect not named in the record; Potency, µM (series often up to 37.9 µM), inactives show at the top dose activity change, negative = inhibition, most hits filed as inhibitors; 1.2% of 300,000 active; active means well fitted inhibition curve with a large enough effect; inconclusive means small, poorly fitted or top-dose-only effect, or effect the other way; inactive means flat fitted curve, though single readings scatter; tested in HEK293 cells; also: % is scaled to controls: 0 for no effect and ±100 for the full control effect; nearly all actives have a fitted effect of over 50% in size; luciferase read-out
Marburg entry inh = blocks Marburg virus binding to or entry into cells. Marburg virus pseudotyped entry inhibition, cell reporter; control for the full effect not named in the record; about a third of the inactives were read at about 46 µM. Potency, µM (doses to about 37.8 µM), without a hit: top-dose activity change, negative = inhibition, hits mostly inhibitors. AID 540276. 1.8% of 300,000 active; active = well fitted inhibition curve with a large enough effect; inconclusive = small, poorly fitted or top-dose-only effect, or effect the other way; inactive = flat fitted curve, though single readings scatter; tested in HEK293 cells; about a fifth of its hits are not listed in these tables; also: % is scaled to controls: 0 for no effect and ±100 for the full control effect; luciferase read-out
RE007 growth inh = less growth of the S. pombe RE007 Vpr strain; S. pombe RE007 Vpr strain, BacTiter-Glo ATP luminescence, 24 h; control for the full effect not named in the record; Potency, µM (series often up to 92.2 µM), for inactives: top-dose activity change, negative = less growth; 0.21% of 360,000 active; active = well fitted falling curve with a large enough effect; inconclusive = small, poorly fitted or top-dose-only effect; inactive = no such curve, though single readings can be large or run the other way;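 also: % is scaled to controls: 0 for no effect and ±100 for the full control effect; nearly all actives have a fitted effect of over 50% in size; the assay follows cell death caused by Vpr and the record does not say whether a fall means rescue or toxicity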
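Fission yeast RE007 carrying one integrated HIV-1 vpr copy, seeded at OD 0.01 in PMG+AL medium with 23 nL pinned compound. Grown 24 h at 30 degrees; viability read by BacTiter-Glo luminescence after 5 min.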
NS1 function inh = blocks influenza NS1 protein function | S. cerevisiae slowed by influenza A NS1, growth recovery by OD600 | Potency, µM (top dose mostly 46.1 µM), for inactives: at the highest dose activity, positive = more growth | 0.4% of 270,000 active | AID 2326; active means well fitted rising curve with a large enough effect; inconclusive means small, poorly fitted or top-dose-only effect; inactive means no such curve, though single readings can be large or run the other way; also: nearly all actives have a fitted effect of over 50% in size
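Read-out: OD600 growth recovery of NS1-expressing budding yeast. Cells grown overnight at 30C in -URA glucose medium, washed, resuspended and diluted 1:100 in 2% galactose assay medium, pH 6.0. Same strain lacking NS1 served as positive control.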
SARS PLpro yeast = blocks SARS-CoV papain-like protease in a yeast assay; S. cerevisiae expressing SARS-CoV PLpro, growth rescue; control for the full effect not named in the record; Potency, µM (titrated, usually from 32.9 µM), inactives show at the top dose activity, positive = growth rescue; 0.19% of 330,000 active; active means well fitted rising curve with a large enough effect; inconclusive means small, poorly fitted or top-dose-only effect; inactive means no such curve, though single readings can be large or run the other way; also: 0% is about no effect; nearly all actives have a fitted effect of over 55% in size; growth read by luminescence after 48 h
* marks the source's active call; other numbers are inactive results; [ ] = remark or other dose. Unless noted, calls follow the shape of the dose curve; as a rule, active = well fitted curve in the direction sought with a large enough effect; inconclusive = small, poorly fitted or top-dose-only effect, or another doubt; inactive = no such curve, though single readings can be large; an effect the other way counts as inactive or inconclusive. Potency is read from the fitted curve at half-maximal effect.

`COC1(c2cc(-c3ccccc3)nc(N)n2)CCCCC1` gave Cruzain inh noDet 13%, StopGo reporter -34%, Cruzain Triton -3.0%, Lassa entry inh -10%, Marburg entry inh -9%, RE007 growth inh 7%, NS1 function inh -11% and SARS PLpro yeast -9%.
For COc1ccc(OCC(=O)N2CCN(c3nnc(-c4ccc(C)cc4)c4ccccc34)CC2)cc1 the results were StopGo reporter 28µM*, Lassa entry inh inconclusive, Marburg entry inh inconclusive, RE007 growth inh -1%, NS1 function inh 1% and SARS PLpro yeast -2%.
For O=C(/C=C/c1c(F)cccc1Cl)Nc1ncccn1 the results were Cruzain inh noDet -15%, StopGo reporter 23%, Cruzain Triton -12%, Lassa entry inh 16%, Marburg entry inh -4%, RE007 growth inh 9%, NS1 function inh -21% and SARS PLpro yeast -36%.
Screening CCC(=O)N1CCc2cc(S(=O)(=O)NC(C(=O)NCc3ccccc3Cl)C(C)C)ccc21 (stereo not drawn) returned Cruzain inh noDet -12%, StopGo reporter -22%, Cruzain Triton -4.3%, Lassa entry inh -5%[46.1 µM] and Marburg entry inh 3%[46.1 µM].
`Cc1nc(SCC(=O)c2ccc(F)cc2)c([N+](=O)[O-])[nH]1` gave Cruzain inh noDet 7%, StopGo reporter 5%, Cruzain Triton -1.6%, Lassa entry inh -17%, Marburg entry inh 5%, RE007 growth inh -10%, NS1 function inh 3% and SARS PLpro yeast 3%.
Screening O=C(CCC(=O)OCc1ccc(Cl)cc1)Nc1cccc([N+](=O)[O-])c1 returned Cruzain inh noDet -5%, StopGo reporter 13%, Cruzain Triton -8.9%, Lassa entry inh 8%, Marburg entry inh 4%, RE007 growth inh 3%, NS1 function inh -38% and SARS PLpro yeast -13%.
For Cc1nn(C)c(C)c1C1C(C#N)=C(N)OC2=C1C(=O)CC(C)(C)C2 (stereo not drawn) the results were Cruzain inh noDet 1%, StopGo reporter 0%, Cruzain Triton -3.9%, Lassa entry inh 11%, Marburg entry inh inconclusive, RE007 growth inh 3%, NS1 function inh 14% and SARS PLpro yeast 24%.
`O=c1[nH]c(=O)n(Cc2ccccc2)c(O)c1C=NCCCn1ccnc1` gave Cruzain inh noDet 9%, StopGo reporter 5%, Cruzain Triton 1.9%, Lassa entry inh inconclusive, Marburg entry inh inconclusive, RE007 growth inh -20%, NS1 function inh 1% and SARS PLpro yeast -2%.
Screening O=c1ccc2c(o1)/C(=C/C=C(Cl)Cl)CCC2 returned Cruzain inh noDet 2%, StopGo reporter -27%, Cruzain Triton -0.2%, Lassa entry inh -3%, Marburg entry inh -6%, RE007 growth inh -17%, NS1 function inh inconclusive and SARS PLpro yeast -10%.
COc1cc(/C=C/C(=O)c2ccccc2O)cc(OC)c1OC was read as StopGo reporter 32µM*, RE007 growth inh 1%, NS1 function inh -6% and SARS PLpro yeast -3%.
CCCCC1CC(C)(C(=O)CSc2nc3ccccc3s2)OC1=O (stereo not drawn) was read as Cruzain inh noDet -3%, StopGo reporter -27%, Cruzain Triton -2.0%, Lassa entry inh -10%, Marburg entry inh inconclusive, RE007 growth inh -14%, NS1 function inh -7% and SARS PLpro yeast -13%.
`Cc1cc(C)cc(-n2c(SCC(=O)Nc3cccc(F)c3)nc3c([nH]c4ccccc43)c2=O)c1` gave Cruzain inh noDet -7%, StopGo reporter inconclusive, Cruzain Triton -0.5% and Lassa entry inh 5%[46.1 µM].
`CC1=C(C(=O)NCc2ccc3c(c2)OCO3)C2(CCC(C)CC2)OC1=O` (stereo not drawn) gave Cruzain inh noDet -2%, StopGo reporter -19%, Cruzain Triton 0.3%, RE007 growth inh 8%, NS1 function inh -12% and SARS PLpro yeast 1%.
CN(C)S(=O)(=O)c1cc(NC(=O)c2ccc(-n3ccnc3)c([N+](=O)[O-])c2)ccc1Cl was read as StopGo reporter inconclusive, Lassa entry inh inconclusive, Marburg entry inh inconclusive, RE007 growth inh 4%, NS1 function inh 12% and SARS PLpro yeast -9%.
Cc1cc(C)c2c(N)c(C(=O)Nc3ccccc3Cl)sc2n1 was read as StopGo reporter 54%[activator], Lassa entry inh -18%, Marburg entry inh inconclusive and RE007 growth inh 1%.
For c1ccc(CNC2=NCCCC2)cc1 the results were Cruzain inh noDet -1%, StopGo reporter -22%, Cruzain Triton 2.5%, Lassa entry inh 13%, Marburg entry inh 2%[46.1 µM], RE007 growth inh 15%, NS1 function inh -19% and SARS PLpro yeast 0%.
`C=CCc1cccc2cc(C(=O)N3CCN(C(=O)OCC)CC3)c(=O)oc12` gave Cruzain inh noDet 9%, StopGo reporter -6%, Cruzain Triton -8.9%, Lassa entry inh -3%, Marburg entry inh -12%, RE007 growth inh 7%, NS1 function inh 13% and SARS PLpro yeast -3%.
O=C(Cc1cccc(C(F)(F)F)c1)Nc1ccc(S(=O)(=O)N2CCCC2)cc1 was read as StopGo reporter 19%, Lassa entry inh -27%, Marburg entry inh inconclusive, RE007 growth inh 5% and SARS PLpro yeast -5%.
`CCCN(C(=O)C1CCN(S(=O)(=O)c2c(C)noc2/C=C/c2ccc(C)cc2)CC1)c1ccccc1F` gave Cruzain inh noDet 0%, StopGo reporter -10%, Cruzain Triton -0.9% and Lassa entry inh inconclusive.
For COn1c(=O)c(-c2ccccc2)[n+]([O-])c2ccccc21 the results were StopGo reporter 10%, Lassa entry inh 10%[46.1 µM], Marburg entry inh inconclusive, RE007 growth inh 4%, NS1 function inh 2% and SARS PLpro yeast 0%.
`Cn1ccnc1Sc1cc(Cl)ccc1[N+](=O)[O-]` gave StopGo reporter -14%, Lassa entry inh 1%, Marburg entry inh -2%[46.1 µM], RE007 growth inh -4% and SARS PLpro yeast -1%.
`Cc1cc(=O)oc2cc(OCc3nnc(-c4ccccc4Br)o3)ccc12` gave Cruzain inh noDet -3%, StopGo reporter 2%, Cruzain Triton -11%, Lassa entry inh inconclusive, Marburg entry inh inconclusive, RE007 growth inh 11%, NS1 function inh -14% and SARS PLpro yeast 2%.
O=C(NCC1CCCO1)c1sc(=S)n2c1[nH]c(=O)c1ccc(C(=O)N3CCCCC3)cc12 (stereo not drawn) was read as Cruzain inh noDet inconclusive, StopGo reporter 29%, Cruzain Triton -8.0%, Lassa entry inh inconclusive, Marburg entry inh inconclusive, RE007 growth inh -7%, NS1 function inh 22% and SARS PLpro yeast -6%.
For O=C(NC(=S)Nc1cccc(Cl)c1N1CCOCC1)c1cccs1 the results were StopGo reporter -35%, RE007 growth inh -19%, NS1 function inh 0% and SARS PLpro yeast 0%.
O=C(O)CC1=C(O)C(=O)N(c2ccccc2)C1c1ccc(Br)cc1 (stereo not drawn) was read as Cruzain inh noDet -7%, StopGo reporter 11%, Cruzain Triton 0.7%, Lassa entry inh 2%, Marburg entry inh 0%, RE007 growth inh 4%, NS1 function inh 7.9µM* and SARS PLpro yeast 6%.
Screening Cc1cc2nc(NC3=NCN(Cc4ccc5c(c4)OCO5)CN3)nc(C)c2cc1C returned Cruzain inh noDet 3%, Cruzain Triton -6.3%, NS1 function inh 3% and SARS PLpro yeast -5%.
Cc1ccc2cc(CN(Cc3ccco3)C(=O)c3ccco3)c3nnnn3c2c1 was read as StopGo reporter -2%, Lassa entry inh -21%[46.1 µM], Marburg entry inh -1%[46.1 µM], RE007 growth inh 13%, NS1 function inh 2% and SARS PLpro yeast -5%.
For CCn1ccnc1CN(C)C(=O)C1CCC(=O)N(CCc2cccc(F)c2)C1 (stereo not drawn) the results were StopGo reporter -17%, Lassa entry inh -23%, Marburg entry inh 29%, RE007 growth inh -9%, NS1 function inh 0% and SARS PLpro yeast inconclusive.
CCc1ccc(OCC(=O)NN2Cc3ccccc3C2=N)cc1 was read as StopGo reporter -16%, RE007 growth inh -19%, NS1 function inh 16% and SARS PLpro yeast 0%.
For CCOC(=O)N1CCN(C(=O)COC(=O)CNC(=O)c2ccc(Cl)cc2Cl)CC1 the results were StopGo reporter -19%, Lassa entry inh -19%, Marburg entry inh -4%, RE007 growth inh 10% and SARS PLpro yeast -1%.
CCOc1cc2c(cc1OCC)-n1cccc1C(c1ccccc1F)NC2 (stereo not drawn) was read as StopGo reporter -25%, Lassa entry inh inconclusive, Marburg entry inh inconclusive, RE007 growth inh -7%, NS1 function inh 3% and SARS PLpro yeast 2%.
Screening O=C1CN(C(=O)COC(=O)/C=C/c2ccc(S(=O)(=O)N3CCOCC3)cc2)c2ccccc2N1 returned StopGo reporter -5%, RE007 growth inh 1%, NS1 function inh -11% and SARS PLpro yeast -1%.
Screening CCOc1cc(NCCN2CCOCC2)c([N+](=O)[O-])cc1OCC returned StopGo reporter 0%, Lassa entry inh -7%[46.1 µM], Marburg entry inh 1%[46.1 µM], RE007 growth inh -9%, NS1 function inh -3% and SARS PLpro yeast -1%.
O=S(=O)([N-]c1nc2ccccc2nc1-[n+]1ccc(CCCc2ccccc2)cc1)c1cccs1 was read as StopGo reporter 31%[activator], Lassa entry inh inconclusive, Marburg entry inh -19%[46.1 µM], RE007 growth inh -7%, NS1 function inh -2% and SARS PLpro yeast 0%.
Screening COc1ccccc1Nc1nc2nonc2nc1N1CCCCC1C (stereo not drawn) returned Cruzain inh noDet -4%, StopGo reporter 0%, Cruzain Triton -4.1%, Lassa entry inh 15%, Marburg entry inh 24%, RE007 growth inh -2%, NS1 function inh -5% and SARS PLpro yeast -4%.
`O=C(CSc1n[nH]c(-c2ccccc2)n1)Nc1ncc(Br)cc1Br` gave Cruzain inh noDet -11%, StopGo reporter -2%, Cruzain Triton -1.8%, Lassa entry inh -12%, Marburg entry inh -5%, RE007 growth inh -9%, NS1 function inh -10% and SARS PLpro yeast 1%.
`CC(C)OC(=O)NCCOC(=O)Nc1cccc(Cl)c1` gave Cruzain inh noDet -1%, StopGo reporter -15%, Cruzain Triton -5.6%, Lassa entry inh 4%, Marburg entry inh 15%, RE007 growth inh inconclusive, NS1 function inh -137% and SARS PLpro yeast -7%.
